VCAM-1 augmentation = boosters of cytokine-driven VCAM-1 levels – imaging, high-content imaging, pooled HUVEC, TNFa stimulus (AID 457). calls only. Pooled HUVEC, TNFa-induced VCAM-1 immunofluorescence imaging; hits of this screen are not shown here. actives 0.2% (n = 10,000);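 active means a top-ranked rise in VCAM-1 staining upheld on image or statistical review; inactive means the rest, including candidates rejected on review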;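 further: compounds tested at 5 µM in the well; cells exposed to compound for 24 hours before fixing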
FPR binder = binds the human formylpeptide receptor FPR; P21462; FPR-expressing cells, fluorescent ligand binding, flow cytometry; inhibition, %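 (tested at 6.7 µM)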; actives 0.74% (n = 24,000); AID 440;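 further: 0% = buffer wells and 100% = receptor blocker peptide wells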
Target sequence (P21462 whole entry, looked up): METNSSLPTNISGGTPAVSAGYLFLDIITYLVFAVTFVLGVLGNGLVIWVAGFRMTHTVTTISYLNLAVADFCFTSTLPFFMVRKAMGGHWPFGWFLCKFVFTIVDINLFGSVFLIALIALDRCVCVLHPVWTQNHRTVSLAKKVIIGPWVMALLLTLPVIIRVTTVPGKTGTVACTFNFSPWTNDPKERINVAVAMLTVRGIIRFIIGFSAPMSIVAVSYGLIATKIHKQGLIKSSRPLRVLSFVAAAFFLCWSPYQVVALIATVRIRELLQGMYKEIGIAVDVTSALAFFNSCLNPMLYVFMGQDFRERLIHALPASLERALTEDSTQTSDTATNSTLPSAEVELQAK
VCAM-1 down = suppression of endothelial VCAM-1 upregulation – cell-based, plate reader, pooled HUVEC, TNFa stimulus (AID 454). actives 0.2% (n = 10,000). HUVEC TNFa-induced VCAM-1 surface immunofluorescence, plate reader; numbers were filed only for top-ranked candidate wells. inhibition, % at 5 µM;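 active means compound among top-ranked inhibitors of TNF-induced VCAM-1 adhesion protein staining, with the hit upheld by image or statistical review; inactive means the rest, including hits rejected on review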;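 further: 0% = TNFa with vehicle and 100% = cells without TNFa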
FPRL1 ligand = binds the human formylpeptide receptor-like-1 FPRL1; P25090; actives 0.3% (n = 24,000); inhibition, %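 (tested at 6.7 µM)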; FPRL1-expressing cells, fluorescent ligand binding inhibition, flow cytometry;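 further: 0% = buffer alone and 100% = receptor blocker peptide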
Target sequence (P25090 whole entry, looked up): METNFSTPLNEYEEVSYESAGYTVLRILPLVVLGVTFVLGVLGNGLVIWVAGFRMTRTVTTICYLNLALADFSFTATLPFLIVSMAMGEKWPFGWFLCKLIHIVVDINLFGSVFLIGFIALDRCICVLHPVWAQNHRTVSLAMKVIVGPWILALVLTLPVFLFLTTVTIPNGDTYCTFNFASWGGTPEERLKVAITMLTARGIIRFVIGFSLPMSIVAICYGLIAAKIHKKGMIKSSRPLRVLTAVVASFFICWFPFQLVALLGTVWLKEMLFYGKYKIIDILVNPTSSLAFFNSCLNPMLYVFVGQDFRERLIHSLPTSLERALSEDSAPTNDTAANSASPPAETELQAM
VCAM-1 imaging = inhibitors of TNFa-induced VCAM-1 surface display, imaging, high-content imaging, pooled HUVEC, TNFa stimulus (AID 456) | HUVEC TNFa-induced VCAM-1 surface expression, immunofluorescence imaging; numbers were filed only for top-ranked candidate wells | inhibition, % at 5 µM, or IC50 in µM where a hit was titrated | actives 0.2% (n = 10,000);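 active means top tenth filtered wells with inhibition above zero that passed visual or statistical confirmation; inactive means the rest, including hits rejected on review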;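 further: 0% = stimulated vehicle wells and 100% = unstimulated cells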
An asterisk follows results filed as active; i = inactive; · = not tested or not shown.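 How the source made its calls, unless noted: active means mean above 30%; inconclusive means self-fluorescent; inactive means the rest.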 Not all compounds are listed. The share of hits here may be higher or lower than overall.

SMILES	VCAM-1 imaging	VCAM-1 augmentation	VCAM-1 down	FPRL1 ligand	FPR binder
O=C(c1ccco1)N1CCN(C2=NS(=O)(=O)c3ccccc32)CC1	i	i	i	2	5
COc1ccccc1-c1cc(C(=O)NCc2ccco2)no1	·	·	·	-1	1
CCCc1nnc(NC(=O)CCC(=O)O)s1	·	·	·	4	0
CN(C)C(=O)Oc1ccc[n+](C)c1	i	i	i	-2	-3
CCn1c(=O)n(CC(=O)N(C)Cc2ccccc2)c(=O)c2ccccc21	i	i	i	4	0
COC(=O)CN(c1ccc(OC)cc1)S(=O)(=O)c1ccc(OC)c(OC)c1	i	i	i	-12	0
COc1cc(OC)c(NC(=O)CCc2nc(-c3ccc(C)cc3)no2)cc1Cl	·	·	·	2	-5
COc1cccc(-c2csc3nc[nH]c(=O)c23)c1	i	i	i	4	5
CSc1oc(-c2ccccc2)nc1S(=O)(=O)c1ccc(F)cc1	i	i	i	0	2
Cc1oc(-c2ccccc2Cl)nc1CSCC(=O)NC1CC1	·	·	·	4	-2
Cc1cc(Nc2ccc(F)cc2F)n2ncnc2n1	·	·	·	3	-1
CC1(C)Cc2c(C#N)c(SCCC#N)nc(N3CCOCC3)c2CS1	i	i	i	-8	4
CCCn1c(NC(=O)C2COc3ccccc3O2)nc2ccccc21 (stereo unspecified)	i	i	i	-4	0
CCOC(=O)N1CCC(N2C(=O)c3ccccc3C2Nc2cc(C(=O)OC)cc(C(=O)OC)c2)CC1 (stereo unspecified)	·	·	·	-2	30
Cc1occc1C(=O)N1CCN(Cc2ccccc2)CC1	i	i	i	6	0
O=C1C(=O)N(CCCN2CCOCC2)C(c2ccccn2)/C1=C(\O)c1ccc2c(c1)OCCO2 (stereo unspecified)	·	·	·	-2	-13

Profiles, looked up by structure. Values in the order: VCAM-1 imaging, VCAM-1 augmentation, VCAM-1 down, FPRL1 ligand, FPR binder
Shown for CCOC(=O)N1CCC(N2C(=O)c3ccccc3C2Nc2cc(C(=O)OC)cc(C(=O)OC)c2)CC1 (stereo unspecified) : ·, ·, ·, -2, 30
Shown for COc1ccccc1-c1cc(C(=O)NCc2ccco2)no1 : ·, ·, ·, -1, 1

Remaining list, next part:
SMILES	VCAM-1 imaging	VCAM-1 augmentation	VCAM-1 down	FPRL1 ligand	FPR binder
C=CCNS(=O)(=O)c1cccc2cc(C(=O)O)c(O)cc12	·	·	·	-1	2
COc1cccc(CNC(=O)C2CCN(S(=O)(=O)N3CC(C)CC(C)C3)CC2)c1 (stereo unspecified)	·	·	·	3	6
C=CCN(C1CCCCC1)S(=O)(=O)c1ccc2c(c1)oc(=O)n2C	·	·	·	-11	-9
Cc1cccc(N(C)c2cc(C)nc3ncnn23)c1	·	·	·	4	2
O=C(c1ccccc1-c1nc(-c2ccccc2)no1)N1CCCC1	i	i	i	6	16
Cc1ccccc1S(=O)(=O)NC1OC(=O)C(Cl)=C1Cl (stereo unspecified)	·	·	·	7	1
Cc1cc(NC(=O)CCC(=O)N(CC(=O)NC2CCCC2)Cc2ccc(F)cc2)no1	i	i	i	6	9
COc1ccc(CCNC(=O)C2CCN(S(=O)(=O)c3c(C)noc3C)CC2)cc1OC	·	·	·	12	4
Cc1csc(NC(=O)CCn2c(=O)oc3ccccc32)n1	i	i	i	16	16
COc1ccccc1NC(=O)C1=C(C)Nc2nnnn2C1c1cc(Br)ccc1OC (stereo unspecified)	·	·	·	-2	-3
COc1cccc(NC(=O)c2oc3ccccc3c2NC(C)=O)c1	·	·	·	6	4
O=C(c1ccccc1)c1ccc(N2CCOCC2)c(NC(=O)c2ccco2)c1	i	i	i	-9	0
Cc1nc2ncnn2c(C)c1CCC(=O)NCc1ccc2c(c1)OCO2	·	·	·	-9	-6
COc1ccccc1NC(=O)NCc1ccc2c(c1)OCO2	i	i	i	-1	12
CC1CCC(NC(=O)c2cc3c(=O)n(C)c4ccccc4c3n2C)CC1 (stereo unspecified)	·	·	·	7	-4
COCCCNC(=O)CC(NS(=O)(=O)c1ccc(C)cc1)c1ccco1 (stereo unspecified)	·	·	·	-5	4
CCN(C(=O)COc1cc(=O)n(C)c2ccccc12)c1cccc(Cl)c1	·	·	·	4	2
COc1cccc(C2=NOC(C(=O)Nc3cc(OC)c(OC)c(OC)c3)C2)c1 (stereo unspecified)	·	·	·	-1	-2
Cc1cc(NC(=O)CSc2nc3ccsc3c(=O)n2CCCCC(=O)O)no1	·	·	·	4	-4
Cc1cccc(N2CCN(S(=O)(=O)c3ccc4c(c3)CCC(=O)N4)CC2C)c1 (stereo unspecified)	i	i	i	-3	5
Cn1c(C(=O)NCCN2CCOCC2)cc2c(=O)n(C)c3ccccc3c21	·	·	·	-4	4
Cn1c(C(=O)NCCN2CCc3ccccc3C2)cc2c(=O)[nH]c3ccccc3c21	·	·	·	1	4
CCn1c(=O)cc(C(=O)OC)sc1=Nc1ccc(F)c(F)c1	·	·	·	-7	-11
Cc1ccccc1NC(=O)Cn1cccc1	·	·	·	4	-4
COc1cc(C(=O)Nc2ccc3c(c2)C(=O)N(CCC(=O)O)C3=O)cc(OC)c1OC	i	i	i	3	14
O=C(CSc1nnc(Cc2cc(=O)[nH]c(=O)[nH]2)n1-c1ccccc1)N1CCCCC1	·	·	·	4	-3
CCOCCCN1C(=O)CN(C2CCCCC2)C(=O)C1c1ccc(OCC)c(OC)c1 (stereo unspecified)	·	·	·	10	3
Cc1ccc(OCc2nnc(SCC(=O)Nc3ccc4c(c3)OCO4)n2C)cc1	i	i	i	-4	-4
CC(NC(=O)c1cc2ccccc2o1)C(=O)O (stereo unspecified)	·	·	·	-4	3
COC(=O)CCC(=O)CN	i	i	i	2	-6
Cc1ccc(-c2cn3cccnc3n2)cc1NC(=O)c1ccc(Br)o1	i	i	i	5	0
COc1ccc(C2c3c(n[nH]c3C)CC(C)(O)C2C(C)=O)cc1OC (stereo unspecified)	·	·	·	-1	-4
CCOC(=O)N1CCC(NC(=O)CN2C(=O)C(CC)Oc3ccc(C)cc32)CC1 (stereo unspecified)	·	·	·	0	4
CCOC(=O)c1cc(-c2ccc(F)cc2)n(CC(=O)Nc2nccs2)c1C	·	·	·	2	3
CCOC(=O)N1CCC(Nc2c(Nc3ccc(C)c(C)c3)c(=O)c2=O)CC1	·	·	·	-6	-2
COCCn1c(=S)[nH]c2cc(C(=O)NCCCN3CCOCC3)ccc2c1=O	·	·	·	1	-1
Fc1ccc(CNc2nc(-c3ccco3)cc(C(F)(F)F)n2)cc1	·	·	·	1	1
COc1ccccc1NCN1C(=O)CCC1=O	i	i	i	12	6
CC(=O)c1c(C)[nH]c(C(=O)Nc2ccc3c(c2)OCCO3)c1C	i	i	i	2	10
COc1cccc(/C=N/n2c(C)nc3ccccc32)c1OC	i	i	i	-6	4
COc1ccc(OC)c(NC(=O)c2nnn(Cc3ccccc3C)c2N)c1	·	·	·	-2	-2
CC(=O)Nc1ccc2c(c1)nc(CCNC(=O)c1ccccc1)n2C	i	i	i	-2	1
COc1ccc(-n2nnc3c(SCC(=O)OCc4ccccc4)ncnc32)cc1	·	·	·	6	3
COc1cccc2c(=O)cc(C)n(CC(=O)Nc3ccc(C)c(C)c3)c12	i	i	i	-2	7
O=C(NCc1ccco1)c1csc(Nc2ccccc2Cl)n1	i	i	i	-6	-5
CCOC(=O)c1[nH]c2ccccc2c1NC(=O)c1ccc(Br)o1	·	·	·	4	-2
CCOc1ccc(NS(=O)(=O)c2ccc3[nH]cc(C(=O)N(CC)CC)c(=O)c3c2)cc1	·	·	·	1	8
CN(C)/C=C(\C#N)c1nc2ccccc2[nH]1	i	i	i	4	0

Three structures from above, sorted by SMILES length, highest first.
SMILES	VCAM-1 imaging	VCAM-1 augmentation	VCAM-1 down	FPRL1 ligand	FPR binder
COc1cc(C(=O)Nc2ccc3c(c2)C(=O)N(CCC(=O)O)C3=O)cc(OC)c1OC	i	i	i	3	14
Cc1cc(NC(=O)CSc2nc3ccsc3c(=O)n2CCCCC(=O)O)no1	·	·	·	4	-4
CC(=O)Nc1ccc2c(c1)nc(CCNC(=O)c1ccccc1)n2C	i	i	i	-2	1

Additional compounds follow.
SMILES	VCAM-1 imaging	VCAM-1 augmentation	VCAM-1 down	FPRL1 ligand	FPR binder
c1ccc(-c2nnc3sc(CN4CCC5(CC4)OCCO5)cn23)cc1	·	·	·	5	1
Cc1nc2ccccc2c2oc(C(=O)NCC3COc4ccccc4O3)cc12 (stereo unspecified)	i	i	i	9	0
C=CCOc1ccccc1/C=c1\sc2nc(=O)c(C)nn2c1=O	i	i	i	21	13
Cc1nnc(SCC(=O)N2CCN(S(=O)(=O)c3ccccc3)CC2)[nH]c1=O	i	i	i	4	-6
Cc1ccc(-c2nc(CSCC(=O)NCCCN3CCOCC3)c(C)o2)cc1	·	·	·	-1	-2
Cc1onc(-c2ccccc2Cl)c1C(=O)N1CCN(c2cccc(Cl)c2)CC1	·	·	·	2	1
Cc1cc(-c2nc3ncccc3o2)ccc1N	i	i	i	-4	-2
Cn1cccc1-c1cc(C(=O)O)[nH]n1	i	i	i	-1	2
Cc1cccc(NC(=O)C2CCCN2C(=O)OCC(C)C)c1C (stereo unspecified)	i	i	i	-6	-6
COc1ccc2c(c1)cc(C(=O)O)n2C	i	i	i	1	-4
O=C(CN1CCN(c2ccc(F)cc2)CC1)OCc1ccccc1	i	i	i	1	-4
COc1cc(C)nc(N2CCCC(C(=O)Nc3cccc(Cl)c3Cl)C2)n1 (stereo unspecified)	i	i	i	-1	4
COc1nc(C#N)nc(N(C)C)n1	·	·	·	0	-1
COc1ccccc1C(=O)NCCn1cc(SCC(=O)NCc2ccco2)c2ccccc21	·	·	·	3	7
Cc1ccc(-n2nc3c(c2NC(=O)c2cccs2)CSC3)cc1	·	·	·	-1	-11
Cc1ccc(S(=O)(=O)N(C)c2ccc(OCC(=O)OCc3c(C)noc3C)cc2)cc1	i	i	i	-11	-12
N#Cc1c(N)n(CCNC(=O)c2cccs2)c2nc3ccccc3nc12	i	i	i	-22	-25
CCOc1cc2[nH]c(=O)n(CCC(=O)NCCc3ccccc3)c(=O)c2cc1OCC	·	·	·	-2	-4
CCOc1nc(-c2ccccc2O)nc2ccccc12	i	i	i	2	-4
O=C(COC(=O)c1ccccc1Oc1ccccc1)NC1CCS(=O)(=O)C1 (stereo unspecified)	i	i	i	-2	-4
Cc1cc(C)cc(N(C(=O)C2CCCC2)C2C=CS(=O)(=O)C2)c1 (stereo unspecified)	·	·	·	-2	0
COC(=O)C1Sc2[nH]c(=O)sc2C2c3ccccc3OC(=O)C12 (stereo unspecified)	·	·	·	0	3
CCc1cccc(NC(=O)Cn2cccc2)c1	·	·	·	-4	-6
Cn1c(SCc2cccc3ccccc23)nnc1-c1ccco1	i	i	i	-1	0
CCOC(=O)Cn1c(=O)oc2cc(S(=O)(=O)N3CCN(c4ccccn4)CC3)ccc21	·	·	·	-1	4
Cc1[nH]nc2c1C(c1ccccc1F)CC(=O)N2 (stereo unspecified)	·	·	·	-6	-6
COc1ccc(-n2c(SCC(=O)NCC3CCCO3)nc3n[nH]c(C)c3c2=N)cc1 (stereo unspecified)	·	·	·	-5	-1
Cn1c(Cn2c(=O)sc3ccccc32)nnc1SCC(=O)NCc1ccccc1Cl	·	·	·	-8	-11
Cc1ccc(-c2nnn(CC(=O)NC3CC4CCC3C4)n2)cc1 (stereo unspecified)	i	i	i	-2	-2
COc1cccc(C(=O)N2CCN=C2SCc2cccnc2)c1OC	·	·	·	10	1
CC(C)Cn1cc(C(=O)NCCCN2CCCC2=O)c2c3ccccc3n(C)c2c1=O	·	·	·	-1	-5
COc1ccccc1CN1CC(C(=O)N2CCN(c3ccc(F)cc3)CC2)CC1=O (stereo unspecified)	i	i	i	-5	-2

A few values from above:
FPR binder with CCOC(=O)Cn1c(=O)oc2cc(S(=O)(=O)N3CCN(c4ccccn4)CC3)ccc21 : 4
FPR binder with COc1ccccc1CN1CC(C(=O)N2CCN(c3ccc(F)cc3)CC2)CC1=O (stereo unspecified) : -2

(more compounds)
SMILES	VCAM-1 imaging	VCAM-1 augmentation	VCAM-1 down	FPRL1 ligand	FPR binder
CCOC(=O)c1sc(=N)n(-c2ccc(OC)cc2)c1C	·	·	·	5	4
COc1cccc(C(=O)CN2CCC(NC(=O)NC3CCCCC3)CC2)c1	i	i	i	1	-2
CC(=O)c1c(C)nc2ccc(Br)cc2c1C(=O)O	·	·	·	-7	-9
CCCN1CCN(C(=O)c2cn(CC(C)C)c(=O)c3cc(OC)c(OC)cc23)CC1	i	i	i	5	5
O=S(=O)(NCC1CCCO1)c1ccc2c(c1)OCCO2 (stereo unspecified)	i	i	i	0	-6

Screens deposited in PubChem by several laboratories.
